Screens (PubChem BioAssay)
HNF4A DNA FP: change in binding of human HNF4 alpha to DNA. P41235. HNF4a-FITC DNA binding, fluorescence polarization, 1 h. activity change, % at 10 µM. 360,000 compounds, 0.3% hits; in the data active means activity change above about 30%, passing the limit was not always enough;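 further: controls were the assay level and a saturating level of protein; the project sought stronger binding though the title names inhibitors; some compounds called inactive have numbers as strong as hits; positive values seem to mean higher polarization but the record does not say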
Target sequence (P41235 whole entry, looked up): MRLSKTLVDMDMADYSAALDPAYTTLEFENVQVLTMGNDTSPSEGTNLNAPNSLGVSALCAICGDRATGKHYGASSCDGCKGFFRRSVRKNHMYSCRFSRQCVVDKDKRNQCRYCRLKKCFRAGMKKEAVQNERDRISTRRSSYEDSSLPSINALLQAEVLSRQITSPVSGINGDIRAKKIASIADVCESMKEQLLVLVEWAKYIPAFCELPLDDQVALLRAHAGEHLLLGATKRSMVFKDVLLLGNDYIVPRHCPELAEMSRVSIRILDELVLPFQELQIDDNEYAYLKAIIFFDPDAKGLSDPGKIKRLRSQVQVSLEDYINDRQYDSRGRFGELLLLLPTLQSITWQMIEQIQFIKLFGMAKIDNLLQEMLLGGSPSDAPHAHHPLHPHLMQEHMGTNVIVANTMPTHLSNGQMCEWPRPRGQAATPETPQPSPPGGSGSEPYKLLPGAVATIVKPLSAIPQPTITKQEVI
ALR inh: human ALR oxidase inhibition via reduced H2O2; AID 485317; inhibition, % (concentration not given with the values); 290,000 compounds, 3.8% hits; P55789; purified ALR, DTT oxidation, H2O2 HRP-luminol luminescence;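 active means mean and each replicate at 75% or more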;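 further: stock transfer was 7.5 nL into about 7.5 µL; 0% = neutral wells and 100% = wells with inactivated enzyme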
Target sequence (P55789 whole entry, looked up): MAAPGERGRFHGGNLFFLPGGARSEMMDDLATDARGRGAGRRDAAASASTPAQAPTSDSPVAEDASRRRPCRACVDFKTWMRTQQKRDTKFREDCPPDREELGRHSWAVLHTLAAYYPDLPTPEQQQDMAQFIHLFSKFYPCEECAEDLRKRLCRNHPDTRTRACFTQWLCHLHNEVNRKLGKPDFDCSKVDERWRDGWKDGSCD
Beta2AR agonist: agonists of human beta-2 adrenergic receptor inducing internalization; Am2.2-beta2AR cells, FAP receptor internalization, flow cytometry; reference of the scale not given here; response, % (concentration not given with the values); 340,000 compounds, 0.43% hits; AID 504454;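 active means response above a set limit, near 3 SD of response in nonfluorescent compounds, cut at about 42% in these data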;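 further: stock transfer was 100 nL into about 11 µL; a reference agonist was the positive control; negative values mostly stem from fluorescent compounds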
Target sequence (P07550 whole entry, looked up): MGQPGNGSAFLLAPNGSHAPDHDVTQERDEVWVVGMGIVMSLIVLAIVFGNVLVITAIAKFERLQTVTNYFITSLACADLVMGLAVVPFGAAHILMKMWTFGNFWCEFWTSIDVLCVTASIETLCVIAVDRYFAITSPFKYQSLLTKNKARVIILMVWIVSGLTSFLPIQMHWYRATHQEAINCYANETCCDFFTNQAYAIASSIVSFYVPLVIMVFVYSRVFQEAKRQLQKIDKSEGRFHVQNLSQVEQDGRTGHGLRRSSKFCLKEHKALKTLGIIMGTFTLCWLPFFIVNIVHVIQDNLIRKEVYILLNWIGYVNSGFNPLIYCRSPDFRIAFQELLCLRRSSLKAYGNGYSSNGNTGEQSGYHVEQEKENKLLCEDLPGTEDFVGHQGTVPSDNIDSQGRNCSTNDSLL
Ecoli growth: blocks Escherichia coli growth | OD600, 23 h; hits give low values | OD600 absorbance (test concentration not listed) | 330,000 compounds, 0.21% hits | AID 1053175;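 active means OD600 absorbance below the run mean of sample wells minus 3.6 SD, in any replicate, cut at about 0.56 in these data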;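 further: stock transfer was 300 nL into about 60 µL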
FGF22 binding: FGF22 (human) thermal shift binding; Q9HCT0; calls only at 9.99 µM; 340,000 compounds, 1.5% hits; recombinant FGF22 thermal shift, SYPRO orange fluorescence; percent of sucrose octasulfate shift, DMSO zero; AID 651658;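 active means melting point raised past a set limit in the mean and every replicate; three in four hits are not shown here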
Ecoli rRNA inh: selective bacterial rRNA inhibition in E. coli | E. coli WT GFP vs humanized-ribosome RFP mutants, fluorescence, 24 h; hits give low values; DMSO median 0, no signal -100 | GFP signal change (wild-type ribosome), % (no concentration beside the values) | 350,000 compounds, 1.6% hits | AID 720706;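 active means significant combined selectivity score with lowered wild-type GFP, culture density cut under 30%, mutant RFP and density less affected; inactive means any of these conditions unmet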; further: one replicate is shown; some compounds called inactive have numbers as strong as hits
UCH37 DUB inh: human UCH37 deubiquitinating enzyme inhibition | Q9Y5K5 | purified proteasome/UCH37, Ub-AMC cleavage fluorescence | inhibition, % (concentration not given with the values) | 330,000 compounds, 0.33% hits;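 active means mean of two replicates above 20%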;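 further: 0% = compound-free wells with enzyme and 100% = wells lacking proteasome; stock transfer was 100 nL into about 20 µL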
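System: Proteasome-associated human UCH37 deubiquitinase; Input: 0.15 nM proteasome in added enzyme buffer; Also added: Ub-AMC substrate from 1 µM stock; Incubation: 30 min compound-proteasome preincubation then 25 min substrate reaction, room temperature; Detection: fluorescence, ex 355 nm, em 460 nm; Read-out: % inhibition of Ub-AMC cleavage fluorescence; Benchmarks: no-proteasome and no-compound wells.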
Ecoli rRNA inh OD600: further read-out of Ecoli rRNA inh, marked with its call; OD600 change, %; measured here: OD600 growth;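 optical density of the mix in the first replicate; 0 = DMSO median and -100 = no signal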
Ecoli rRNA inh RFP: also measured in Ecoli rRNA inh; calls as there; RFP signal change, %; measured here: RFP humanized mutant strains;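 first replicate; 0 = DMSO median and -100 = no signal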
Active calls of the source: *; i = inactive; / = not tested or not shown. This is a subset, so the mix of outcomes need not match the whole.

Molecule,HNF4A DNA FP,ALR inh,Beta2AR agonist,Ecoli growth,FGF22 binding,Ecoli rRNA inh,Ecoli rRNA inh OD600,Ecoli rRNA inh RFP,UCH37 DUB inh
NCCc1ccc(S(N)(=O)=O)cc1,-5.6,2.5,4.1,0.715,i,12.3,10.7,-0.2,7.8
COC(=O)C(O)(c1ccc(NC(=O)c2ccco2)c(OC)c1)C(F)(F)F (centres undefined),-1.1,3.4,3.0,0.79,/,/,/,/,3.4
CCN(CC)c1ccc(C=C2C(=O)N(C)C(=S)N(C)C2=O)o1,147.0,0.1,5.2,0.73,i,6.4,2.8,5.5,10.3
Fc1cccc(-c2ccc3c(c2)CN(c2cccc(Cl)c2)Cc2cnnn2-3)c1,-1.6,/,/,/,i,3.0,6.8,-1.0,/
Cn1cnc(CCN)c1,2.8,-2.5,0.5,0.71,i,/,/,/,0.6
Cc1ccc(S(=O)(=O)Oc2ccccc2C=C2C(=O)N(C)C(=O)N(C)C2=O)cc1,-0.7,33.7,-4.4,0.648,i,/,/,/,-0.2
Cc1ccc(OP(=O)(NCc2ccccc2)Oc2ccc(C)cc2)cc1,-2.2,-6.4,2.5,0.674,/,/,/,/,0.6
O=c1[nH]c(=O)n(-c2ccccc2Cl)c(O)c1C=NCCN1CCCCC1,8.1,-5.0,-3.0,0.724,/,/,/,/,-0.4
COC(=O)C(O)(c1c[nH]c2ccccc12)C(F)(F)F (centres undefined),1.1,-8.5,16.7,0.679,/,/,/,/,1.2
CC(=O)C1CCC2C3CCC4CC(O)CCC4(C)C3CCC12C (centres undefined),6.0,-7.4,17.1,0.704,i,/,/,/,4.6
O=C(COc1ccc(Br)cc1)N1CCN(Cc2c[nH]c3ccccc23)CC1,2.1,1.6,14.5,0.722,/,/,/,/,-5.9
CCn1c(O)c(C=NCc2ccccc2)c(=O)[nH]c1=S,-0.8,-3.4,5.8,0.717,i,-0.4,3.9,-3.4,6.6
Cc1cccc(CN2CCCC(C(=O)c3ccc4c(c3)OCO4)C2)n1 (centres undefined),2.6,5.6,2.3,0.706,i,13.4,1.0,0.5,0.2
CCOc1cc2c(cc1OCC)-n1cccc1C(c1ccc(F)c(OC)c1)NC2 (centres undefined),7.4,-5.0,-4.5,0.676,i,-5.3,-26.2,-3.6,5.3
O=c1[nH]c(=O)n(Cc2ccccc2Cl)c(O)c1/C=C1/C=CC=N1,5.4,7.9,9.5,0.693,i,17.6,19.8,8.3,1.1
N#CC1c2ccccc2-n2nncc2CN1S(=O)(=O)c1ccccc1 (centres undefined),-0.6,/,8.0,/,i,21.0,-5.2,16.1,/
c1ccc(C2CC2)c(OCC2=NCCN2)c1,-2.0,-33.9,8.5,0.679,i,/,/,/,0.4
CCOC(=O)Cn1cc([N+](=O)[O-])nc1[N+](=O)[O-],8.9,-40.7,9.7,0.721,/,/,/,/,-3.0
O=Cc1cn(Cc2ccccc2F)c2ccccc12,0.9,-3.8,-0.5,0.686,i,-25.1*,-20.1*,-10.8*,-0.1
N#C[C@H](O[C@@H]1O[C@H](CO[C@@H]2O[C@H](CO)[C@@H](O)[C@H](O)[C@H]2O)[C@@H](O)[C@H](O)[C@H]1O)c1ccccc1,1.6,-17.8,6.5,/,i,6.3,7.2,4.1,1.9

Next part; it opens with the 2 that closed the last part.
Molecule,HNF4A DNA FP,ALR inh,Beta2AR agonist,Ecoli growth,FGF22 binding,Ecoli rRNA inh,Ecoli rRNA inh OD600,Ecoli rRNA inh RFP,UCH37 DUB inh
O=Cc1cn(Cc2ccccc2F)c2ccccc12,0.9,-3.8,-0.5,0.686,i,-25.1*,-20.1*,-10.8*,-0.1
N#C[C@H](O[C@@H]1O[C@H](CO[C@@H]2O[C@H](CO)[C@@H](O)[C@H](O)[C@H]2O)[C@@H](O)[C@H](O)[C@H]1O)c1ccccc1,1.6,-17.8,6.5,/,i,6.3,7.2,4.1,1.9
O=C(O)C1=CC2c3ccccc3C1c1ccccc12,-2.8,0.2,-1.9,0.674,i,-6.0,3.4,-1.3,5.1
CN1c2ccc([N+](=O)[O-])cc2CC2(C(=O)NC(=O)N(c3ccccc3)C2=O)C1c1ccccc1 (centres undefined),0.1,1.8,-2.6,0.708,i,10.5,11.6,5.4,8.3
Cc1ccc(CN2C3CCCC2CC(NC(=O)Nc2cccc(F)c2)C3)cc1 (centres undefined),16.2,1.1,2.5,0.674,i,-8.2,-7.5,1.2,-0.3
CN1C(=O)NC(=O)[C@]2(Cc3ccccc3N3CCN(c4ccccc4)CC32)C1=O (some centres undefined),-10.2,19.6,-9.3,0.736,/,/,/,/,2.6
O=C1/C(=C\c2cc3c(cc2Cl)OCO3)N2CCC1CC2,0.7,-83.7,-3.7,0.646,/,/,/,/,3.0
CC(=O)OC(C)(C)/C=C/C(=O)C(C)(O)C1C(O)CC2(C)C3CC=C4C(CC(O)C(=O)C4(C)C)C3(C)C(=O)CC12C (centres undefined),0.6,/,16.4,/,i,/,/,/,/
CC(C(=O)Nc1ccc(Cl)cc1Cl)N1CC=C(c2ccccc2)CC1 (centres undefined),-4.1,4.0,-13.9,0.75,i,/,/,/,5.2
CN1C(=O)C(Cc2ccccc2)C(=O)N(C)C1=O,-0.3,/,-1.0,/,i,7.9,16.1,-0.4,/
CC(C)Nc1ccc(Nc2ccccc2)cc1,3.9,99.3*,1.4,0.682,i,-0.4,16.0,1.5,3.9
C=C1N2CCC(CC2)C1(O)c1ccccc1C (centres undefined),-0.5,-2.1,41.0,0.746,/,/,/,/,0.4
O=C(c1cc(F)ccc1F)C1CCCN(Cc2ccc3nonc3c2)C1 (centres undefined),-4.6,-1.7,0.2,0.668,i,-27.1,-25.9,-7.5,1.5
S=C=Nc1cccc(C2(N3CCCCC3)CCCCC2)c1,3.3,-18.3,24.2,/,i,/,/,/,1.2
COc1ccccc1C=C1C(=O)NC(=S)NC1=O,-0.7,/,3.7,0.662,i,15.1,19.4,5.2,-1.0
CC12CCC3C(CCC4(O)CC(O)CCC34C=O)C1(O)CCC2C1=CC(=O)OC1 (centres undefined),-0.4,/,-2.8,/,i,10.8,12.2,-0.9,/
COc1ccc(CCNC(C)CCc2ccc(OC)cc2)cc1 (centres undefined),3.9,-16.7,-4.8,0.644,i,-2.0,-5.7,0.7,1.6
C[C@]12CCC3C(CC[C@H]4C[C@H](O)CC[C@]34C)C1[C@@H](O)C[C@@H]2O (some centres undefined),1.8,-0.9,-1.6,0.673,i,5.0,5.7,2.5,3.9
COc1cc(CN=C(C)c2c(O)n(C)c(=O)n(C)c2=O)cc(OC)c1,-1.6,-2.5,3.6,0.7,i,-2.1,1.8,0.4,4.7
Fc1ccc2c(c1)nnn2C1CCN(Cc2nnnn2CCc2ccccc2)CC1,4.8,/,-11.4,0.731,/,/,/,/,4.0
O=C(Cc1ccccc1)OC(COCc1ccccc1)CN1CCOCC1 (centres undefined),0.7,2.5,-2.2,0.754,/,/,/,/,1.7
NC(Cc1ccccc1)c1csc(Nc2ccccn2)n1 (centres undefined),1.7,/,/,/,i,4.3,-25.8,2.5,/

(cont.)
Molecule,HNF4A DNA FP,ALR inh,Beta2AR agonist,Ecoli growth,FGF22 binding,Ecoli rRNA inh,Ecoli rRNA inh OD600,Ecoli rRNA inh RFP,UCH37 DUB inh
CC[n+]1c(/C=C/C=C/c2ccc(N(C)C)cc2)sc2ccccc21,15.5,/,46.2*,0.513,i,-56.4,-4.6,60.8,19.1
O=c1[nH]c(=S)n(Cc2ccc(F)cc2)c(O)c1C=NCC1CCCO1 (centres undefined),-2.2,6.5,-2.1,0.69,/,/,/,/,7.8
CCOC(=O)/C(=N\Nc1ccccc1)N1CC1,-1.3,10.2,-2.7,/,i,14.4,13.7,0.7,/
C#CC1(O)C=CC2C3CCC4=CC(=O)CCC4C3CCC21CC (centres undefined),-0.3,-24.3,5.8,0.672,i,-20.2*,-4.0*,5.7*,5.6
NP(=O)(OCCCc1ccccc1)c1ccccc1 (centres undefined),1.6,1.3,0.8,0.71,i,6.3,8.1,4.2,1.6
COc1ccc(C(=O)C(Cc2ccccc2)N(C)C)cc1 (centres undefined),-1.0,0.6,4.7,0.677,/,/,/,/,-0.1
CCCNC(=O)N1C2CCC1CC(O)(c1cccnc1)C2 (centres undefined),2.1,0.7,7.8,0.697,/,/,/,/,-0.7
O=S1c2ccccc2-c2ccccc21,-1.2,/,/,/,i,5.8,-2.3,-0.8,/
CC1(CCO)C(=O)NC(=S)NC1=O,2.5,/,1.0,0.697,i,9.0,2.2,-2.7,-0.9
COc1ccc(OCC#CCN2CCC(C)CC2)cc1,-1.1,-7.9,-9.6,0.682,/,8.7,6.9,-3.4,6.1
CCOc1cc(CNCCc2ccccc2F)ccc1OC,-0.8,-11.9,-3.7,0.672,i,17.5,13.7,2.3,1.5
O=c1oc2ccccc2c(O)c1C(c1ccccn1)c1c(O)c2ccccc2oc1=O,3.2,8.6,-4.3,/,i,-1.6,1.9,-1.4,/
CCC(c1nnnn1C1CCCC1)N1CCC2(CC1)C(=O)NCN2c1ccccc1 (centres undefined),9.0,/,/,/,i,12.2,10.2,-1.4,/
O=C(Cc1ccccc1)N1CCN(CC2CC=CCC2)CC1 (centres undefined),3.5,-4.8,-2.0,0.667,/,/,/,/,3.4
C[C@]12CC[C@H](O)CC1=CC[C@@H]1[C@@H]2CC[C@]2(C)C(=O)CC[C@@H]12,3.7,-6.2,0.5,/,i,/,/,/,-1.4
Cc1ccc(Cn2nnnc2CN2CCC(n3nnc4cc(C(F)(F)F)ccc43)CC2)cc1,-0.2,/,-11.7,0.705,/,/,/,/,2.7
COc1ccc(CN2CCN(C(=O)COc3cccc(C)c3)CC2)c(OC)c1,-5.0,/,-6.5,0.753,/,/,/,/,1.6
Cc1ccc(CS(=O)(=O)Cc2ccc(C(=O)N3CCC4(CC3)OCCO4)o2)cc1,-0.3,-2.1,-1.6,0.724,i,-0.2,-2.4,-5.3,0.0
CCn1c(O)c(/C=N/NC(=O)c2ccccc2)c(=O)[nH]c1=S,-3.2,6.8,3.8,0.64,i,23.4,4.6,7.7,-27.2
CCOC(=O)[C@]12Cc3cc(Cl)ccc3[C@H]1N(C)C(=O)c1ccccc12,2.2,/,/,/,i,-24.2,-62.2,-3.0,/

The list continues:
Molecule,HNF4A DNA FP,ALR inh,Beta2AR agonist,Ecoli growth,FGF22 binding,Ecoli rRNA inh,Ecoli rRNA inh OD600,Ecoli rRNA inh RFP,UCH37 DUB inh
CC(=O)O[C@@]12CO[C@@H]1C[C@H](OC1OCC(O)C(O)C1O)[C@@]1(C)C(=O)[C@H](O)C3=C(C)[C@@H](OC(=O)[C@H](O)[C@@H](NC(=O)c4ccccc4)c4ccccc4)C[C@@](O)([C@@H](OC(=O)c4ccccc4)C12)C3(C)C (some centres undefined),-2.8,/,0.3,0.718,i,/,/,/,2.0
O=C1C2CCCN2C(c2cccnc2)N1c1ccc(Cl)c(Cl)c1 (centres undefined),1.9,-6.2,4.5,0.677,/,/,/,/,-0.2
O=[N+]([O-])[N-][n+]1cnn(Cc2ccc(Cl)cc2)c1,-1.8,15.3,-7.2,0.684,/,22.7,14.3,-2.7,1.3
CCCCCCC(=O)c1c(O)n(-c2ccccc2OC)c(=O)[nH]c1=O,-0.3,0.7,-4.7,0.726,/,/,/,/,-1.4

Look-ups from above:
O=C1C2CCCN2C(c2cccnc2)N1c1ccc(Cl)c(Cl)c1 (centres undefined) | ALR inh = -6.2
CC(=O)O[C@@]12CO[C@@H]1C[C@H](OC1OCC(O)C(O)C1O)[C@@]1(C)C(=O)[C@H](O)C3=C(C)[C@@H](OC(=O)[C@H](O)[C@@H](NC(=O)c4ccccc4)c4ccccc4)C[C@@](O)([C@@H](OC(=O)c4ccccc4)C12)C3(C)C (some centres undefined) | Ecoli growth = 0.718
